Screening data deposited in PubChem BioAssay by PCMD.
Calb biofilm kill: mixture kills Candida albicans biofilm cells. inhibition, % at 7.6 µM. C. albicans biofilm persisters + clotrimazole, fluorescence viability; primary screen in compound mixtures of four per well. actives 0.02% (n = 120,000). AID 1242;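 active = inhibition above 30.3% in the primary screen of four-compound pools, then above 30% when the compound was retested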;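 note: compounds exposed to preformed 24 h biofilms for 48 h; the number belongs to the whole pool; some results filed as inactive read as strong as hits; inactives centre near 12; 0% = biofilm with clotrimazole alone and 100% = kill control; retested singly at about 60 µM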
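Incubation: 24 h biofilm formation, then 48 h compound exposure, 37 °C | Material: C. albicans biofilms | Buffer or medium: RPMI/MOPS medium, pH 7.0 | Measured by: 2-h Alamar Blue fluorescence, 535/590 nm excitation/emission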
Numbers without * were called inactive. These rows are one share of the data. The share of hits here may be higher or lower than overall.

SMILES	Calb biofilm kill
O=C1C2C3C=CC(c4ccccc4)(C2C(=O)N1c1cccc(Cl)c1)C1C(=O)N(c2cccc(Cl)c2)C(=O)C31 (configuration not stated)	18
O=[N+]([O-])c1ccc(-c2ccc(C=Nc3cccc4ccccc34)o2)cc1	9
O=C(Nc1ccncc1)c1ccccc1[N+](=O)[O-]	-9
N#Cc1ccccc1Sc1ccccc1C(=O)OCC(=O)NC1CCS(=O)(=O)C1 (configuration not stated)	5
Cc1ccc(S(=O)(=O)NC(C)C(=O)Nc2cccc([N+](=O)[O-])c2)cc1 (configuration not stated)	11
C=CCN(CC=C)C(=S)NC(=O)/C=C/c1ccc(C)cc1	17
CCCCCCOc1ccc(C(=O)O)cc1	30
COc1ccc(C[C@@H]2CN3C(=NC[C@@H]3C)N2CCNC(=O)c2ccc(C)c(Br)c2)cc1	24
CCC(=O)OC1(C)C(=O)C2=COC(c3ccc(OC)cc3)=CC2=C(Br)C1=O (configuration not stated)	7
CN(C)c1ccc(Cl)cc1N	-5
O=[N+]([O-])c1ccc(COc2ccc(-c3[nH]ncc3-c3ccc(Cl)cc3)c(O)c2)cc1	-4
COc1cccc(/C=N/NC(=O)c2[nH]nc3c2CCc2ccccc2-3)c1O	18
N#C/C(=N\Nc1ccccc1)C(=N)N1CCCCCC1	19
CCOC(=O)CC(NC(=O)Cn1nnc(-c2ccccc2)n1)c1ccc(OC)cc1 (configuration not stated)	-3
O=C(c1ccccc1Cl)N1CCSCC1	12
Nc1ncnc(Sc2ccc(Cl)cc2)c1[N+](=O)[O-]	4
O=C(NCc1cccnc1)c1ccccc1-c1nc(-c2ccccc2)no1	14
COC(C(=O)Nc1ccc(C(C)=O)cc1)c1ccccc1 (configuration not stated)	-10
COc1ccc(NC(=O)c2cc3c(Cl)nc4ccccc4c3s2)c(OC)c1	10
CCOc1ccccc1NC(=O)N1C2CCCC1CC(NC(=O)C1CC1)C2 (configuration not stated)	12

Five records picked at random from the list so far:
SMILES	Calb biofilm kill
O=[N+]([O-])c1ccc(COc2ccc(-c3[nH]ncc3-c3ccc(Cl)cc3)c(O)c2)cc1	-4
COC(C(=O)Nc1ccc(C(C)=O)cc1)c1ccccc1 (configuration not stated)	-10
Nc1ncnc(Sc2ccc(Cl)cc2)c1[N+](=O)[O-]	4
COc1cccc(/C=N/NC(=O)c2[nH]nc3c2CCc2ccccc2-3)c1O	18
CCOC(=O)CC(NC(=O)Cn1nnc(-c2ccccc2)n1)c1ccc(OC)cc1 (configuration not stated)	-3

Part of the list above, as labelled records.
> CCCCCCOc1ccc(C(=O)O)cc1
  Calb biofilm kill = 30
> COc1ccc(C[C@@H]2CN3C(=NC[C@@H]3C)N2CCNC(=O)c2ccc(C)c(Br)c2)cc1
  Calb biofilm kill = 24
> CCC(=O)OC1(C)C(=O)C2=COC(c3ccc(OC)cc3)=CC2=C(Br)C1=O (configuration not stated)
  Calb biofilm kill = 7

(more compounds)
SMILES	Calb biofilm kill
COC(=O)CSc1nc2c(c(-c3ccc(O)cc3)c1C#N)CCCC2	20
CCCOC(=O)c1ccc(N2C(=O)c3ccccc3C2=O)cc1	8
Cc1ccc2nc(-c3ccc(N4C(=N)SC5CS(=O)(=O)CC54)cc3)sc2c1 (configuration not stated)	17
CN(C)CCCN1C(=O)C2CCc3[nH]c4ccccc4c3C2C1=O (configuration not stated)	23
Cc1cccc(C)c1NC1=C(Cl)C(=O)OC1OC(=O)c1ccccc1 (configuration not stated)	15
COc1ccc(Br)cc1/C=C/C(=O)NC(=S)Nc1ccc(Cl)c(C(=O)O)c1	5
Cc1onc(-c2ccccc2Cl)c1C(=O)NC(=S)NCCc1ccccc1	17
CCC(C)NC(=O)c1ccccc1NC(=O)C1COc2ccccc2O1 (configuration not stated)	25
CC(=O)Nc1ccc(OCc2nnc(-c3ccc(Cl)cc3)o2)cc1	-8
COc1cc(OC)cc(C(=O)NNC(=O)NC2CCCCC2)c1	10
CN1CCN(c2ccc(S(=O)(=O)N3CCOCC3)cc2NC(=O)CCc2ccccc2)CC1	12
O=C(NNC(=O)c1oc2ccccc2c1-n1cccc1)c1ccco1	5
COc1ccc(NC(=O)c2cccc(S(=O)(=O)N(C)c3ccccc3)c2)cn1	1
Cc1ccc(S(=O)(=O)C2CCCCC2=O)cc1 (configuration not stated)	9
O=C(c1ccccc1Br)N1CCC(c2nc3ccccc3s2)CC1	16
Cc1ccc(N2CN(CCC3=CCCCC3)CNC2=S)cc1	13
COc1ccc(/C(CC2OC(=O)c3ccccc32)=N\NC(N)=O)cc1 (configuration not stated)	-12
COc1ccc(OC)c(NS(=O)(=O)c2ccc(NC(=O)c3ccc(NS(C)(=O)=O)cc3)cc2)c1	15
CNC(=S)Nc1ccccc1-c1ccccc1	8
O=C1C2C3CC(C(Br)C3Br)C2C(=O)N1CC1CCCO1 (configuration not stated)	12
O=C(Oc1ccc(-n2cnnn2)cc1)c1ccccc1	22
O=C1N(CN2CCN(Cc3ccccc3)CC2)c2ccccc2C12OCCCO2	1
O=C(O)CC(NC(=O)c1cccc([N+](=O)[O-])c1)c1ccc2c(c1)OCO2 (configuration not stated)	9
COc1ccccc1-n1c(=O)c2c3c(sc2n2c(=S)[nH]nc12)CCC3	-1
COc1ccc(CN(C)CC(=O)Nc2ccc(Cl)cc2F)c(OC)c1	11
Cc1c(C(=O)NCCN2C(=O)S/C(=C\c3cccnc3)C2=O)cccc1[N+](=O)[O-]	14
O=c1[nH]ncc(NCc2ccc(Cl)cc2)c1Cl	7
O=[N+]([O-])c1cc(S(=O)(=O)CCCN2CCOCC2)ccc1F	11
O=C(CCc1ccccc1)NC(NC(=S)Nc1cccc(Cl)c1)C(Cl)(Cl)Cl (configuration not stated)	9
O=C1Nc2ccc([N+](=O)[O-])cc2OC1CCN1CCN(Cc2ccc3c(c2)OCO3)CC1 (configuration not stated)	21
COc1cc(NC(=O)CN2CCC(Cc3ccccc3)CC2)c(C)cc1[N+](=O)[O-]	-6
Cc1ccc(NC(=O)c2c(C)nc3ccccn23)cc1C	9
CN(CCOc1ccccc1)Cc1nc2cc(Cl)ccc2c(=O)[nH]1	2
COc1ccc(C(=O)Nc2nc(C)cc(C)n2)cc1[N+](=O)[O-]	13
COc1ccc(NC(=S)NC(C)Cc2cccs2)cc1 (configuration not stated)	9
Cn1c(SCC(=O)N2CCOCC2)nnc1-c1ccc2ncccc2c1	13
CCN1/C(=C/c2ccc3cc(C)ccc3[n+]2CC)Sc2cc(C)ccc21	26
O=C1NCCCC1C(=O)N1CCN(C(c2ccccc2)c2ccccc2)CC1 (configuration not stated)	3
Cc1cc(Cl)ccc1C(=O)C1CCCN(C(=O)/C=C/c2cnn(C)c2)C1 (configuration not stated)	15
O=C(Nc1ccc(Cl)cn1)Nc1ccccc1Cl	14
COc1ccc(C2Nc3cccc4cccc(c34)N2)cc1	13
O=C(O)COc1ccc(/C=N/Nc2nc(Nc3ccccc3)nc(N3CCCCC3)n2)cc1	4
COc1ccc(C2CC(=O)Oc3c(C(CCN4CCOCC4)c4cc(OC)c(OC)c(OC)c4)c(OC)cc(OC)c32)cc1 (configuration not stated)	12
CCn1nc(C(=O)Nc2ccc3nc(C)sc3c2)c2ccccc2c1=O	7
Cc1ccc(NC(=S)/N=C(\N)Nc2nc(C)c3cc(C)c(C)cc3n2)cc1C	22
CCOCCCNC(=S)Nc1cc(OCC)c(NC(=O)c2ccco2)cc1OCC	23
O=C(O)/C(=C\c1cccc([N+](=O)[O-])c1)c1ccc(S(=O)(=O)N2CCCCC2)s1	16
CC(/C=C1\SC(=S)N(C(C(=O)O)C(C)C)C1=O)=C\c1ccccc1 (configuration not stated)	-6
O=C(NC(=S)Nc1ccccn1)c1cccc([N+](=O)[O-])c1	15
COC(=O)c1cn(-c2nc(C)c3c(n2)CCC3)nn1	-3

Some of the entries above in another layout:
Molecule,Calb biofilm kill
CCn1nc(C(=O)Nc2ccc3nc(C)sc3c2)c2ccccc2c1=O,7
Cc1ccc(NC(=S)/N=C(\N)Nc2nc(C)c3cc(C)c(C)cc3n2)cc1C,22

New compounds follow.
SMILES	Calb biofilm kill
COc1ccc(N2C(=O)CC2(/C=C/c2ccccc2OC)C(=O)NC2CCCC2)cc1 (configuration not stated)	14
O=C1CCCC(O)=C1N=Nc1cccc(S(=O)(=O)N2CCOCC2)c1	10
COc1ccc(CCNC(=O)C(C(=O)c2ccccc2)n2cc(Cl)ccc2=O)cc1OC (configuration not stated)	8
CC1CCCCC1NC(=O)CSc1ccsc1[N+](=O)[O-] (configuration not stated)	8
CCCCOC(=O)CCCc1ccc([N+](=O)[O-])cc1[N+](=O)[O-]	19
CC(C)CN1CCNC(=O)C1CC(=O)NCCCN1CCCc2ccccc21 (configuration not stated)	25
S=C(NCCc1ccccc1)N1CCn2cccc2C1c1cccnc1 (configuration not stated)	22
CCCCNC(=O)C(=O)N/N=C/c1cccc(Br)c1	7
CC(C)CCN(C(=O)CNC(=O)c1cccs1)C(C(=O)NC1CCCCC1)c1cccnc1 (configuration not stated)	24
O=[N+]([O-])c1ccc2c(c1)c1ccccc1n2CCO	21
Cc1ccc(OCC(=O)N/N=C/c2ccccc2)c([N+](=O)[O-])c1	32
CC1(C)CC(=O)C2=C(C1)N(CCN1CCOCC1)C1=C(C(=O)CC(C)(C)C1)C2c1ccc(Cl)c([N+](=O)[O-])c1	2
Cc1ccn2c(Nc3ccccc3C)c(-c3cccnc3)nc2c1	10
CCCc1nn2c(=O)cc(O)nc2s1	14
Nn1c(SCc2ccc(F)cc2)nnc1-c1cccnc1	19
Cc1ccc(NC(=O)c2ccc(Cn3cc(Br)cn3)o2)cc1	7
CCOCC(O)CNC(=O)c1ccc(OC2CCN(C(=O)c3cccnc3)CC2)cc1 (configuration not stated)	-1
COc1ccc(OCCC(=O)OCC(=O)NCc2ccc(F)cc2)cc1	19
COCCN(C(=O)CSc1nnc(C)n1-c1ccccc1)c1c(N)n(Cc2ccccc2)c(=O)[nH]c1=O	11
Cc1cc(NC(=O)c2ccc(NC(=O)C3CC3)cc2)no1	15

Grouped by structure: the compounds so far containing a cyano group.
SMILES	Calb biofilm kill
N#Cc1ccccc1Sc1ccccc1C(=O)OCC(=O)NC1CCS(=O)(=O)C1 (configuration not stated)	5
N#C/C(=N\Nc1ccccc1)C(=N)N1CCCCCC1	19
COC(=O)CSc1nc2c(c(-c3ccc(O)cc3)c1C#N)CCCC2	20

Later entries
SMILES	Calb biofilm kill
O=C(COc1ccccc1[N+](=O)[O-])N/N=C/c1cccc(OC(=O)c2ccc3c(c2)OCO3)c1	16
CCOc1ccc(-n2c(C)c(C(C)=O)c(C(C)=O)c2C)cc1	18
CC(=O)Nc1nc(C)c(-c2csc(Nc3ccc(S(N)(=O)=O)cc3)n2)s1	13
C=C(C)CCOC(=O)C(CC(=O)O)NCc1ccco1 (configuration not stated)	22
CCOC(=O)CC(NC(=O)c1ccc(C)cc1)c1ccc(OC)cc1 (configuration not stated)	0
CC1(C)CC(=O)C2=C(C1)OC(N)=C([N+](=O)[O-])C2c1ccc(F)cc1 (configuration not stated)	20
N#C/C(N)=C(/C#N)N=Cc1cccc(Cl)c1	26
Cc1ccc(-c2nn3c(C)nnc3s2)cc1N	9
COc1ccc(-c2cc(C(F)(F)F)n3nc(C(=O)Nc4c(C)n(C)n(-c5ccccc5)c4=O)c(Cl)c3n2)cc1	11
COc1ccc(-c2csc(NC(=O)Cc3cccc4ccccc34)c2C(=O)O)cc1	9
O=C(NCc1ccccc1)c1onc(CSc2ccccc2)c1C(=O)NCC1CC1	11
Cc1ccccc1NC(=O)c1cccc(S(C)(=O)=O)c1	12
COc1ccc(N2CCC(CNC(=S)Nc3ccc(C)cc3C)C2)cc1 (configuration not stated)	17
Brc1ccc(COc2ncnc3ccccc23)cc1	11
Cn1cnnc1SCC(=O)Nc1cccc(S(=O)(=O)N2CCOCC2)c1	1
COc1ccccc1C(CC(=O)Nc1ccccc1C)c1ccc(OC(C)C)cc1 (configuration not stated)	4
Cc1cc(C)nc(NC(=O)c2ccc([N+](=O)[O-])o2)n1	17
CN(C(=O)CCn1c(=S)oc2ccccc21)C1CCCCC1	22
CN(CC(=O)O)S(=O)(=O)c1ccc2c(c1)NC(=O)CC(=O)N2	17
C=CCNCC(=O)N1N=C(c2ccc3ccccc3c2)CC1c1ccc(OC)cc1 (configuration not stated)	14
O=C1c2ccccc2C2(c3ccc(F)cc3)NCCN12 (configuration not stated)	9
CCN(CC)S(=O)(=O)c1ccc(OC)c(NC(=O)CSc2cc(C)ccc2C)c1	13
O=C(COC(=O)CNC(=O)c1cccc([N+](=O)[O-])c1)Nc1cccc(S(=O)(=O)N2CCCCC2)c1	17
Cc1nc2sc(C(c3ccccc3)N3CCN(C(=O)c4ccco4)CC3)c(O)n2n1 (configuration not stated)	18
C#CCNC(=O)C1=C[C@H](c2ccccc2)[C@@H](CCCO)[C@H](OCC)O1	14
CC(C)(C)c1ccc(OCC(=O)NNC(=S)NC(=O)c2ccccc2[N+](=O)[O-])c(Br)c1	-1
Cc1ccc(S(=O)(=O)N(CC(=O)N(C)C)c2cccc([N+](=O)[O-])c2)cc1	13
CCCN1CN(CCc2ccccc2)CNC1=S	-12
CCOc1ccc(Br)cc1S(=O)(=O)N1CCCC1	11
CN(C)S(=O)(=O)N(CC(=O)N1CCC(Cc2ccccc2)CC1)c1ccccc1	4
O=C(Cc1c(Cl)cccc1Cl)NCCc1ccc(Cl)cc1	15
CC1(C)CC(=O)/C(=C(/O)CCCN2C(=O)c3ccccc3C2=O)C(=NC(C)(C)C)C1	20
C/C(=N\Nc1ccccc1Cl)c1ccc(-n2ccnc2)cc1	21
C=CCc1ccc(OCCCOc2ccc(C(=O)O)cc2)c(OC)c1	-8
CC(C)CN(C(=O)CN1CCN(c2ccc(F)cc2)CC1)c1c(N)n(CC(C)C)c(=O)[nH]c1=O	13
OCC1(Cc2ccccc2)CCCN(C2CCCC2)C1 (configuration not stated)	9
